CtBP-E1A blk: blocks the CtBP interaction with E1A | AlphaScreen GST-E1A/His-CtBP binding, 1536-well; hits give low values; control for the full effect not named in the record | activity change, % (no concentration beside the values) | actives 0.49% (n = 340,000) | AID 651724; in the data active means activity change below about -65%; inconclusive means about -30% to -65%; inactive means above about -30%; also: % is scaled to controls: 0 for no effect and ±100 for the full control effect; compound concentration not given in the record
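GST-E1A and His-tagged CtBP (125 nM each as 5X stock) were preincubated with pin-transferred compound for 2 h at 37 °C in the dark, then glutathione donor and nickel acceptor beads were added for 1 h before AlphaScreen reading.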
PINK1 modulator: modulators of PINK1 expression; PINK1 immunofluorescence, high-content cytometry, 24 h; Potency, µM (titrated, usually from 76.6 µM), for the others: at the top dose activation (PINK1 increase), actives largely listed as activators; actives 0.2% (n = 410,000); AID 624263; active = well fitted activation curve with a large enough effect; inconclusive = small, poorly fitted or top-dose-only effect; inactive = flat fitted curve, though single readings scatter; cell line not stated here;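 also: potency is read from the fitted curve at half-maximal effect; % of control where 0% means no effect; nearly all actives have a fitted effect of over 65% in size; a mitochondrial uncoupler was the plate control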
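Stable cell line treated 24 h with compounds at 5 concentrations (CCCP controls), then fixed and immunostained for PINK1 plus nuclear and cell stains; PINK1 immunofluorescence quantified by laser-scanning microplate cytometry.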
D2 ag: agonists of human D2 dopamine receptor (beta-arrestin). P14416. DiscoveRx PathHunter D2 beta-arrestin, luminescence, 90 min; 100% = 57 uM dopamine signal. activation, % (test concentration not listed). actives 0.084% (n = 360,000); in the data active = activation above about 40%; inconclusive = about 15% to 40%; inactive = below about 15%; also: compound concentration not given in the record; the text of the record calls up to 30% inactive
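DiscoveRx PathHunter D2 beta-arrestin cells (2,100/well) attached overnight, then compound-stimulated 90 min at 37 C in HBSS/10 mM HEPES/0.1% Tween-20 buffer; beta-galactosidase complementation read by luminescence after 1 h at ambient temperature. Dopamine 57 uM final (EC100) as control.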
TRPML1 blocker: human mucolipin-1 channel inhibition; actives 0.02% (n = 390,000); activity change, negative = inhibition, % (no concentration beside the values); Q9GZU1; TRPML1-inducible cells, Ca2+ dye fluorescence, FDSS; hits give low values; inhibition of EC80 agonist-evoked calcium signal; in the data active means activity change below about -50%; inconclusive means about -30% to -50%; inactive means above about -30%;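 also: stimulus is agonist 54-4 at its EC80 concentration; % is scaled to controls: 0 for no effect and ±100 for the full control effect; compound concentration not given in the record; the text of the record puts the active cut at -80%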
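Tet-induced TRPML1-DL cells loaded with Ca8 no-wash calcium dye were read kinetically on FDSS. Compound addition was followed by EC80 agonist 54-4 (4 uM final); inhibition was read over 110 s.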
Six1-Eya2 inh: blocks human Six1 binding to Eya2 | activity change, % (no concentration beside the values) | Q15475+O00167 | actives 0.56% (n = 360,000) | AlphaScreen GST-Six1/His-Eya2 binding, biochemical; hits give low values; control for the full effect not named in the record | AID 651725; in the data active = activity change below about -65%; inconclusive = about -30% to -65%; inactive = above about -30%; also: % is scaled to controls: 0 for no effect and ±100 for the full control effect; compound concentration not given in the record
Target sequence (O00167 whole entry, looked up): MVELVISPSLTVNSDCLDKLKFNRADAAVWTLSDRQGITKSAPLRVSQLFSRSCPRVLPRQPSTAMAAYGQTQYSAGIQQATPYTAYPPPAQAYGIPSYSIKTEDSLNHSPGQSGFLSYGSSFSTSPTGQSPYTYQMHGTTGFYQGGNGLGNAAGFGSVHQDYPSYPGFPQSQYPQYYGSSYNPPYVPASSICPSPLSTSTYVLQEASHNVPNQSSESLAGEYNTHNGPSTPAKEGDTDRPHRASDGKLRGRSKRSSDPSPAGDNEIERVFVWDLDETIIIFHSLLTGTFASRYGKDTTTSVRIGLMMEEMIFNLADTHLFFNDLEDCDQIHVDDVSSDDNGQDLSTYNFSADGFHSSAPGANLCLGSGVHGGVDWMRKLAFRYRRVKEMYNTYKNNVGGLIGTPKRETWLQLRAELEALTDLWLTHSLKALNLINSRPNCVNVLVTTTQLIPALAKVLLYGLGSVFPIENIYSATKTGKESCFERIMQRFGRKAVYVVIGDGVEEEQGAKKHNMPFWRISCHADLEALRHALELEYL
Target sequence (Q15475 whole entry, looked up): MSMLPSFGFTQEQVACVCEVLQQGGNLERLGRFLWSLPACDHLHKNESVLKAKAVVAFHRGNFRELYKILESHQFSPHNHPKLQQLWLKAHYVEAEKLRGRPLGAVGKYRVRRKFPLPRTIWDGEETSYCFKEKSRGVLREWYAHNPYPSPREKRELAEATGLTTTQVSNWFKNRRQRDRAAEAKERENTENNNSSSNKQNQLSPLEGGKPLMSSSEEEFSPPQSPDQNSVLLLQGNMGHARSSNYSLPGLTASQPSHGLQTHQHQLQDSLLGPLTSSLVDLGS
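Homogeneous AlphaScreen proximity assay pairing GST-Six1 with His-tagged Eya2 (added as 5X mix: 250 nM and 500 nM) in 50 mM Tris pH 8.0, 300 mM NaCl, 1 mM TCEP. Glutathione donor and nickel acceptor beads; 1 h, 37 °C, dark.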
TRPML1 ag: agonists of human TRPML1 channel; actives 0.12% (n = 410,000); TRPML1-expressing cells, Ca2+ dye fluorescence, FDSS; host cell line not named in the record; reference of the full effect not given here; Q9GZU1; activation, % (no concentration beside the values); in the data active = activation above about 50%; inconclusive = about 30% to 50%; inactive = below about 30%; also: 0% is about no effect; the text of the record puts the active cut at 80%
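Calcium fluorescence on an FDSS kinetic reader gave the read-out. Tet-induced TRPML1-DL cells were plated overnight, dye-loaded (Ca8 with quencher, 45-90 min, room temperature, dark), then read 110 s after compound addition, and again 110 s after 4uM final 54-4 (EC80).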
* = called active by the depositor; u = inconclusive; x = not tested or not shown; [ ] = remark or other dose.

SMILES | CtBP-E1A blk | PINK1 modulator | TRPML1 blocker | TRPML1 ag | D2 ag | Six1-Eya2 inh
COc1ccc(-c2cc(C(F)(F)F)nc(SCCC(=O)Nc3cc(C)ccc3O)n2)cc1 | x | 4.8% | 16.4 | 2.6 | x | x
CS(=O)(=O)Nc1ccc(C(=O)CSc2nnc(C3CC3)n2C2CC2)cc1 | 1.7 | -2.3% | -8.1 | -0.2 | 2.0 | 4.3
COc1ccc(C(CNC(=O)Cc2ccccc2Cl)N2CCCCC2)cc1 (stereo not given) | 0.0 | 0.4% | -12.7 | 1.1 | -5.0 | 24.3
O=C(O)C(F)=C1c2ccccc2-c2ccccc21 | 2.1 | -1.1% | 2.8 | -0.4 | -0.7 | -20.4
Sc1nnc(-c2ccc(Cl)cc2)n1Cc1ccccc1 | 0.2 | -0.9% | -3.1 | -0.8 | 2.5 | -11.4
CC1CCCN(CCCOc2ccccc2-c2ccccc2)C1 (stereo not given) | 2.9 | 4.2% | 15.4 | 1.3 | -1.8 | -6.7
COc1ccccc1-n1c(SCC(=O)Nc2ccccc2C)nc(O)cc1=O | -6.3 | 0.3%[38.3 µM] | 3.2 | 0.1 | -1.5 | -8.5
CCOc1ccc(C(=O)Nn2cnnc2)cc1OCC | 0.0 | 0.2% | x | x | -9.4 | -7.9
COc1ccc(C(=O)Nc2ccc(-c3nc4ccccc4s3)cc2C)cc1Cl | x | 0.4% | -19.6 | 1.5 | x | x
CC(C)C(c1nnnn1C1CCCC1)N1CCCCC1 (stereo not given) | -0.1 | 0.1% | -0.9 | -0.3 | -4.0 | 3.9
Oc1ccc(Br)cc1C1C=C(c2ccc3c(c2)OCO3)NC(c2c(F)cccc2Cl)N1 (stereo not given) | x | 5.4% | -8.8 | 1.7 | x | x
CCN(CC)S(=O)(=O)c1ccc(Br)c(OC)c1 | 9.1 | 4.5%[38.3 µM] | 18.2 | -0.5 | -2.0 | 4.1
C/C(=N\NS(=O)(=O)c1ccc([N+](=O)[O-])cc1)c1ccc(NC(=O)c2ccco2)cc1 | -3.7 | 1.0% | -4.4 | 0.7 | 3.2 | -0.7
Nc1ccc(C(=O)NNC(=O)C2COc3ccccc3O2)cc1[N+](=O)[O-] (stereo not given) | 0.3 | 0.5% | -7.0 | 0.5 | -3.8 | 0.3
C=CCNc1nc(NCCNC(C)=O)c2sc(-c3ccccc3)cc2n1 | -19.8 | 0.9% | x | -1.0 | -5.6 | -13.8
Cc1cccc(NC(=O)COC(=O)c2ccc3nc(C)c(C)nc3c2)c1 | -11.7 | 0.3% | 10.7 | -0.1 | -4.1 | 5.3
Cc1nc(S(=O)(=O)N2CCN(C3c4ccccc4-c4ccccc43)CC2)cn1C | 9.6 | -0.2% | 7.0 | 0.7 | -1.2 | -16.7
O=C1CC(C(=O)O)S/C(=N\NC(=O)c2ccccc2)N1 (stereo not given) | 3.1 | -2.5%[38.3 µM] | 13.6 | 0.6 | -1.1 | 0.0
NC(=O)C1CCN(C(=O)c2cccc3ccccc23)CC1 | x | 1.6% | x | x | 1.8 | -2.1
C/C=C/c1ccc(OCCCNCC(C)O)c(OC)c1 (stereo not given) | 24.0 | -0.7% | -8.1 | -0.3 | 0.1 | -2.5
CCN(CC)Cc1ccc(NC(=O)c2sc3cc(Cl)ccc3c2Cl)cc1 | -6.5 | -3.9% | 0.0 | -0.7 | -3.1 | -2.4
Cc1ccc2c(c1)[C@@H]1[C@H](CO2)[C@H](c2ccccc2)[C@@]2(C)C(=O)N[C@H](C)C(=O)N12 | -0.4 | 1.3% | -0.2 | -0.9 | -1.9 | -8.1
CCC1(CC)Cc2ccccc2-c2nc(NCCO)[nH]c(=O)c21 | 6.1 | -4.7%[38.3 µM] | 28.7 | -0.6 | -1.1 | -1.5
CNNC(=O)C(=O)NNS(=O)(=O)c1ccccc1 | x | -0.4% | -19.3 | 2.5 | -2.0 | 2.9
Nc1nonc1-c1nc2ccccc2n1Cc1ccc(F)cc1Cl | x | 12.7% | -4.3 | 0.3 | 2.6 | 11.6
COc1cccc(-c2cc(C(=O)NCCc3ccccc3)no2)c1 | 3.4 | 22.7%[38.3 µM] | 0.1 | 0.6 | -2.4 | 1.3
CC(C)N(CC#CC(O)(c1ccccc1)c1ccccc1)C(C)C | 4.5 | -1.5% | -3.6 | -0.5 | -3.6 | 3.6
Cc1cccc(N(CC(=O)NC(C)(C)C)C(=O)CNC(=O)c2cccs2)c1 | 0.8 | 0.0% | 15.0 | 1.4 | 2.9 | 1.3
COc1ccccc1OCC(=O)Nc1cc2c(cc1C(=O)O)OCCCO2 | -11.0 | 6.2% | 20.7 | -0.5 | -7.0 | -4.7
CC(C)Cn1c(N)c(C(=O)COC(=O)c2c(O)c(Cl)cc(Cl)c2Cl)c(=O)n(C)c1=O | u | -0.6% | 10.6 | -0.2 | -3.3 | -10.6
Cc1c(Br)cc(C(=O)N2CCCCCC2)c(C)c1C | 2.5 | -2.0% | 14.1 | 2.1 | -2.1 | -0.6
O=C1O/C(=C/C(=O)N2CCOCC2)c2ccccc21 | -1.9 | -1.9% | 12.7 | 0.1 | -4.1 | -0.3
CC(C)(O)C#Cc1ccccc1C(=O)NC(CC(N)=O)C(=O)O (stereo not given) | 4.1 | 3.1% | -2.4 | -0.3 | -0.7 | 15.5
O=C(Cn1nnc(-c2ccccc2)n1)NNC(=O)c1ccco1 | -3.4 | -0.3% | -1.2 | 0.9 | 4.2 | -2.7
COc1ccc(/C=C(\NC(=O)c2ccc(OC)cc2)C(=O)NC(CCSC)C(=O)O)cc1 (stereo not given) | 4.8 | -3.0% | 5.3 | 0.6 | -2.5 | -1.1
O=C(Cn1nnc(-c2ccccc2)n1)NC1CCS(=O)(=O)C1 (stereo not given) | 5.4 | 0.0% | -8.6 | -0.5 | -5.2 | -1.2
O=C1[C@H]2[C@@H](c3ccccc3)N[C@]3(CCCN(Cc4ccc(C(F)(F)F)cc4)C3=O)[C@H]2C(=O)N1Cc1ccccc1 | -4.3 | 2.0% | -14.9 | 0.3 | -7.9 | -21.3
O=C(NCCc1csc(-c2cccnc2)n1)c1ccc(F)c(F)c1 | x | 0.5% | 1.3 | 1.1 | x | x
[O-]/[N+](=C\c1ccco1)c1ccc(Cl)cc1 | x | 3.6% | 14.4 | -0.7 | 4.8 | -2.0
CC(=O)N1c2ccc(S(=O)(=O)N3CCC(C(=O)N4CCC(C)CC4)CC3)cc2CC1C (stereo not given) | -7.1 | 1.3% | -9.6 | -0.3 | -3.3 | 0.0
CCOc1ccc(N2CC(O)Cn3c2nc2c3c(=O)n(CCCc3ccccc3)c(=O)n2C)cc1 (stereo not given) | -9.4 | 2.3% | 2.7 | 2.1 | -0.7 | -0.6
COc1cccc(-n2cc(C(=O)Oc3ccc(F)cc3)c3ccccc3c2=O)c1 | x | 0.3% | -13.5 | 0.6 | x | x
c1cc(-c2sc(-c3ccncc3)c(-c3ccncc3)c2-c2ccncc2)ccn1 | 2.1 | -0.3% | -1.9 | 0.7 | 2.4 | 3.4
c1ccc(-c2nnc(-c3ccccn3)s2)nc1 | 0.0 | 0.7% | -8.2 | -0.3 | 2.3 | -7.8
Cc1ccc(C)c(S(=O)(=O)N2CCN(C(=O)Cn3cnc4c3c(=O)n(C)c(=O)n4C)CC2)c1 | 0.0 | 0.7% | 14.2 | -0.2 | 9.2 | -5.1
O=C(Nc1ccccc1Br)c1ccccc1-c1ccccc1 | 3.3 | 17.3% | 9.9 | 0.5 | -6.2 | 11.3
CC(=O)c1ccc(OCC(C)Oc2ccc(C#N)cc2)cc1 (stereo not given) | x | 1.6% | -6.7 | -0.3 | -2.9 | 11.9
CC1CCCCC1NC(=O)CSc1nnc(COc2ccccc2Cl)o1 (stereo not given) | 7.0 | 10.0%[38.3 µM] | 13.0 | 1.1 | -1.9 | 3.9
COc1ccc(CC(=O)NNC(=O)CCc2ccccc2)cc1OC | 3.9 | 1.5% | -3.8 | 0.2 | 2.9 | -0.7
O=C(Nc1ccccc1Cl)/C(Cl)=C(\Cl)S(=O)c1ccccc1 (stereo not given) | -9.9 | -1.0% | -15.0 | 2.8 | -10.5 | -1.2
Cc1cccc2c(=O)cc(CSc3ccccc3NC(=O)c3cccc(Cl)c3)[nH]c12 | x | 4.1% | 0.5 | 1.5 | x | x
O=C(CCn1c(=O)c2cccn2c2cccnc21)N1CCN(c2ccccc2)CC1 | x | -0.2% | -6.6 | -1.0 | x | x
CCOC(=O)C1CCN(C(=O)COC(=O)CNC(=O)c2ccc(OC)cc2)CC1 | 21.8 | 1.7% | -1.5 | 0.3 | -0.5 | 5.3
Cc1ccc(OCc2nnc(NC(=O)c3ccco3)s2)c(C)c1 | 7.5 | x | -1.0 | 1.3 | 0.9 | 2.2
CC(C)n1cc(C(=O)N2CCCC(N3CCN(c4ccc(F)cc4)CC3)C2)cn1 (stereo not given) | 6.5 | 0.5% | 7.6 | -0.5 | -1.1 | 3.2
Cc1ccc(C(=O)NC2CCN(S(=O)(=O)c3ccccc3)CC2)cc1 | -1.5 | 6.3% | -18.2 | 0.3 | -4.6 | 5.0

Further results
SMILES | CtBP-E1A blk | PINK1 modulator | TRPML1 blocker | TRPML1 ag | D2 ag | Six1-Eya2 inh
CCCCCC(=O)N(c1ccc(OCC)cc1)S(=O)(=O)c1ccc2c(c1)n(C)c(=O)n2C | x | 4.3% | 4.6 | 1.4 | x | x
Cc1ccc(N(CC(=O)NC(C)(C)C)C(=O)CS(=O)CC(=O)Nc2ccc3c(c2)OCO3)cc1 (stereo not given) | x | 0.3% | 8.2 | 1.1 | -2.9 | -0.8
CCOc1ccc(C(=O)CCC(=O)Nc2cc(C)ccn2)cc1 | -4.4 | 2.3% | 24.1 | 0.2 | -4.4 | -1.5
COc1ccc(S(=O)(=O)n2nc(-c3ccco3)nc2NCc2ccc(OC)c(OC)c2)cc1 | x | -0.3% | 12.4 | 0.4 | x | x
CCC(C(=O)NC(C)CCc1ccccc1)n1nc(C)n2c(cc3occc32)c1=O (stereo not given) | 2.0 | 1.2% | 5.9 | 0.8 | -2.4 | -3.8
Cc1cc(C)cc(NC(=O)Cn2c(=O)n(C(C)C)c(=O)c3oc4ccccc4c32)c1 | x | 0.5% | 7.3 | -0.5 | x | x
Fc1ccc2cnc(CCO[C@H]3CCCCO3)cc2c1 | 0.0 | -1.5% | 4.0 | -0.1 | 10.7 | 12.6
O=C(c1n[nH]c(=O)c2ccccc12)N1CCN(c2ccc(F)cc2)CC1 | -5.1 | -0.4% | -2.1 | 0.2 | 0.9 | -1.6

Screens as filed in PubChem.
